LASV entry inh – inhibitors of Lassa virus binding or cell entry. Lassa virus pseudotype entry inhibition, cell reporter; control for the full effect not named in the record. Potency, µM (series often up to 37.9 µM), inactives show top-dose activity change, negative = inhibition, most hits filed as inhibitors. actives 1.2% (n = 300,000). AID 540256; active means well fitted inhibition curve with a large enough effect; inconclusive means small, poorly fitted or top-dose-only effect, or effect the other way; inactive means flat fitted curve, though single readings scatter; tested in HEK293 cells; further: on the % scale 0 is the no-effect control and ±100 the full control effect; nearly all actives have a fitted effect of over 50% in size; luciferase read-out
Marburg entry inh – Marburg virus entry inhibition. Marburg virus pseudotyped entry inhibition, cell reporter; control for the full effect not named in the record; about a third of the inactives were read at about 46 µM. Potency, µM (highest dose often 37.8 µM), for the others: top-dose activity change, negative = inhibition, most hits filed as inhibitors. actives 1.8% (n = 300,000); active = well fitted inhibition curve with a large enough effect; inconclusive = small, poorly fitted or top-dose-only effect, or effect the other way; inactive = flat fitted curve, though single readings scatter; tested in HEK293 cells; about a fifth of its hits are not listed in these tables; further: on the % scale 0 is the no-effect control and ±100 the full control effect; luciferase read-out
RE007 growth inh – less growth of the S. pombe RE007 Vpr strain. S. pombe RE007 Vpr strain, BacTiter-Glo ATP luminescence, 24 h; control for the full effect not named in the record. Potency, µM (top dose mostly 92.2 µM), inactives show at the top dose activity change, negative = less growth. actives 0.21% (n = 360,000). AID 651644; active = well fitted falling curve with a large enough effect; inconclusive = small, poorly fitted or top-dose-only effect; inactive = no such curve, though single readings can be large or run the other way;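 further: on the % scale 0 is the no-effect control and ±100 the full control effect; nearly all actives have a fitted effect of over 50% in size; the assay follows cell death caused by Vpr and the record does not say whether a fall means rescue or toxicity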
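Fission yeast RE007 carrying one integrated HIV-1 vpr copy, seeded at OD 0.01 in PMG+AL medium with 23 nL pinned compound. Grown 24 h at 30 degrees; viability read by BacTiter-Glo luminescence after 5 min.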
Cruzain noTriton – inhibitors of Trypanosoma cruzi cruzain without detergent; actives 2.3% (n = 200,000); P25779; purified cruzain, Z-FR-AMC fluorescence, no detergent; Potency, µM, for the others: max response, negative = inhibition, most hits filed as inhibitors;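 further: plate controls were enzyme without inhibitor for no effect and buffer without enzyme for full effect; nearly all actives have a fitted effect of over 40% in size; top concentration of the series not given in the record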
Target sequence (P25779 123-467 limits assumed): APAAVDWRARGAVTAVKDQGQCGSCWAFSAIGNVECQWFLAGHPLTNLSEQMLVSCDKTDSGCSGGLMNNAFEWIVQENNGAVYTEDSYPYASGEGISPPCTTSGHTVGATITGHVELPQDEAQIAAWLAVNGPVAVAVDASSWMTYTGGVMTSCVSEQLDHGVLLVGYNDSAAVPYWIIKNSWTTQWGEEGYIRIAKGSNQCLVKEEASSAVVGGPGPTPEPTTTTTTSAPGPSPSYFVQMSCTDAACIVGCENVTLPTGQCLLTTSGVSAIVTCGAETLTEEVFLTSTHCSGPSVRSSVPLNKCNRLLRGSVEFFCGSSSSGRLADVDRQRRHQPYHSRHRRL
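Purified cruzain at 1.5 nM, pre-incubated 15 min with compound at room temperature in 100 mM sodium acetate pH 5.5, 5 mM DTT, 0.00005% Triton X-100. Reaction started with 2 uM Z-FR-AMC; AMC fluorescence increase over 60 s gives rate.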
SARS PLpro yeast – SARS-CoV PLP inhibition in yeast; S. cerevisiae expressing SARS-CoV PLpro, growth rescue; control for the full effect not named in the record; AID 485353; Potency, µM (series often up to 32.9 µM), inactives show top-dose activity, positive = growth rescue; actives 0.19% (n = 330,000); active means well fitted rising curve with a large enough effect; inconclusive means small, poorly fitted or top-dose-only effect; inactive means no such curve, though single readings can be large or run the other way; further: 0% is about no effect; nearly all actives have a fitted effect of over 55% in size; growth read by luminescence after 48 h
2A StopGo – lowers the luciferase signal of an FMDV 2A StopGo reporter; human cells with a luciferase reporter of 2A StopGo recoding; control for the full effect not named in the record; Potency, µM (highest dose often 57.9 µM), inactives show at the top dose signal change, negative = less light; actives 1.2% (n = 410,000); AID 1159524; active = well fitted falling curve with a large enough effect; inconclusive = small, poorly fitted or top-dose-only effect; inactive = no such curve, though single readings can be large or run the other way; tested in HEK293T cells; further: on the % scale 0 is the no-effect control and ±100 the full control effect; nearly all actives have a fitted effect of over 45% in size; luciferase light after 4 h
Cruzain inh Det – inhibitors of Trypanosoma cruzi cruzain with detergent; P25779; purified cruzain, Z-FR-AMC fluorescence, 0.01% Triton; Potency, µM, without a hit: max response, negative = inhibition, hits mostly inhibitors; actives 0.43% (n = 200,000); AID 1478;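 further: plate controls were neutral wells for no effect and buffer without enzyme for full effect; nearly all actives have a fitted effect of over 40% in size; top concentration of the series not given in the record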
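Cruzain (1.5 nM) preincubated 15 min at RT with compound in 100 mM sodium acetate pH 5.5, 5 mM DTT, 0.01% Triton X-100. Reaction started with 2 uM Z-FR-AMC; AMC fluorescence (ex 360/em 450 nm) change over 60 s gave rate.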
NS1 function inh – influenza NS1 inhibition | S. cerevisiae slowed by influenza A NS1, growth recovery by OD600 | actives 0.4% (n = 270,000) | Potency, µM (series often up to 46.1 µM), for inactives: at the highest dose activity, positive = more growth; active means well fitted rising curve with a large enough effect; inconclusive means small, poorly fitted or top-dose-only effect; inactive means no such curve, though single readings can be large or run the other way; further: nearly all actives have a fitted effect of over 50% in size
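A cell-based growth assay was used: compounds that relieve NS1-induced slow growth of budding yeast raise OD600. Assay medium was yeast nitrogen base with ammonium sulphate and -URA supplement, pH 6.0, with 2% galactose.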
The depositor's hits bear a star; ? = inconclusive; / = no result given; [ ] = dose if it differs, or a comment. Unless noted, the call rests on the fitted dose curve; in most records, active means well fitted curve in the direction sought with a large enough effect; inconclusive means small, poorly fitted or top-dose-only effect, or another doubt; inactive means no such curve, though single readings can be large; an effect the other way counts as inactive or inconclusive. Potency means the concentration at half of the fitted maximal effect.

mol	LASV entry inh	Marburg entry inh	RE007 growth inh	Cruzain noTriton	SARS PLpro yeast	2A StopGo	Cruzain inh Det	NS1 function inh
Cn1c(=O)cc(SCC(=O)N2CCN(c3ccc(F)cc3)CC2)c2ccc(Cl)cc21	20%[46.1 µM]	4%[46.1 µM]	/	-4%	/	-22%	-0.4%	/
Cc1cccc(N(CC(=O)Nc2c(C)n(C)n(-c3ccccc3)c2=O)S(C)(=O)=O)c1C	11%	?	0%	2%	9%	4%	2.7%	2%
C=CCn1c(C)nnc1SCC(=O)Nc1oc(C)c2c(C)n[nH]c(=O)c12	13%[46.1 µM]	2%	8%	/	-1%	2%	/	/
COc1cccc(NC(=O)CC(c2ccc(OC(C)C)cc2)c2ccccc2OC)c1 (stereo not drawn)	6%	10%	3%	2%	15%	-25%	-3.0%	5%
CCOC(=O)c1ccc(N2C(=O)c3[nH]nc(-c4ccc(C)cc4)c3C2c2cccs2)cc1 (stereo not drawn)	?	?	/	?	/	?	-1.4%	/
O=C(c1ccc2c(c1)N(Cc1ccccc1)CCS2)N1CCCCC1	/	/	-8%	-7%	-15%	15%	-10%	-17%
O=C(Nc1ccc(N2CCN(C(=O)c3cccs3)CC2)cc1)c1cccnc1Cl	/	/	4%	/	0%	-7%	/	4%
CCN(CC)CCOC(=O)CCc1cccc2ccccc12	6%	25%[46.1 µM]	3%	-10%	-13%	-6%	1.7%	-6%
O=C(NCC(c1cccs1)N1CCOCC1)c1ccc(Cl)s1 (stereo not drawn)	?	?	7%	-10%	-4%	/	3.2%	-13%
Cc1cc(N2CCCC2)nc2ccc(NC(=S)NC(C)C)cc12	15%	?	-5%	/	-5%	9%	/	/
Cc1noc(COc2ccccc2OCc2onc(C)c2Cl)c1Cl	-20%	?	-10%	-3%	-69%	-13%	-3.3%	-19%
CCC(=O)Nc1cccc(-c2csc(-c3ccccc3)n2)c1	?	?	-1%	-7%	-110%	7%	-9.7%	-47%
O=C(CS(=O)(=O)c1ccccc1)c1cc2ccccc2oc1=O	/	/	17%	/	-21%	29%	/	-12%
O=C1CCc2cc(S(=O)(=O)Nc3ccc(F)cc3)cc3c2N1CC3	-2%	0%[46.1 µM]	-12%	/	0%	13%	/	/
O=S(=O)(c1ccc(Cl)cc1)N1CCCC(C(F)(F)F)C1 (stereo not drawn)	/	/	7%	/	0%	-24%	/	0%
COc1ccc(C(C)(C)C)cc1NC(=O)COC(=O)C(C)C	18%	6%	26%	/	-5%	-8%	/	0%
CC12CCC(C)(O1)C1C(=O)N(c3nccs3)C(=O)C12 (stereo not drawn)	7%[46.1 µM]	3%[46.1 µM]	26%	/	/	29%	/	/
Brc1ccccc1CN1CCN(Cc2c[nH]c3ccccc23)CC1	?	?	-6%	/	/	?	/	/
Cc1ccc(C(=O)Nc2ccc(NC(=O)c3ccc(C)o3)cc2)o1	16%	0%[46.1 µM]	9%	/	2%	-3%	/	-1%
COC(=O)c1cc(NC(=O)Cc2cc(OC)c(OC)c(OC)c2)cc(C(=O)OC)c1	-9%	-2%[46.1 µM]	-4%	/	0%	-7%	/	/
C/C(CC(=O)NC(C)(C)C)=N\NC(=O)c1ccco1	2%	5%	14%	-6%	?	-3%	0.0%	-3%
CCN(CC)C(=O)COc1coc(CN2CCN(c3ccccc3)CC2)cc1=O	21%[46.1 µM]	0%[46.1 µM]	-4%	/	1%	-8%	/	15%
Cc1ccc(-c2nnc(-c3ccccc3)o2)cc1	10µM*	16µM*	?	-11%	-25%	-20%	-0.8%	-22%
Cc1ccc(S(=O)(=O)N2CCN(C(=O)COC(=O)c3ccc(Cl)c(S(N)(=O)=O)c3)CC2)c(C)c1	-8%	4%	-8%	/	/	0%	/	/
COc1ccc(NC(=O)CSc2nc3sc(C)cc3c(=O)n2C)cc1	10%[46.1 µM]	22%[46.1 µM]	18%	/	1%	-2%	/	-5%
Cc1cccc(NC(c2ccccc2C)c2ccc3ccc(C)nc3c2O)n1 (stereo not drawn)	?	?	/	1%	/	?	-7.9%	/
COc1ccc(CNc2nc(NCc3ccc(OC)c(OC)c3)n(C(=O)c3cccs3)n2)cc1OC	-21%	?	10%	?	-5%	-19%	-3.4%	13%
CCOc1ccc(N2CC(C(=O)NCc3cccc(C)c3)CC2=O)cc1 (stereo not drawn)	13%	?	15%	2%	-5%	0%	3.9%	-10%
Clc1cccc(CSc2nncn3c2cc2sccc23)c1	-2%[46.1 µM]	/	/	14%	/	1%	-8.2%	/
COC(=O)c1cc(C(=O)Nc2cccc(C)n2)cc([N+](=O)[O-])c1	9%	4%	?	-7%	-2%	-22%	0.2%	11%
COc1cc(CNn2cn[nH]c2=S)cc(Br)c1OCc1ccccc1F	/	/	0%	/	-1%	-24%	/	7%
O=C1CC(c2ccco2)CC(O)=C1C=NCC1CCNCC1 (stereo not drawn)	1%	?	17%	-6%	5%	-25%	-0.2%	10µM*
COc1ccc(/C(C)=N/Nc2nc3ccccc3n3cnnc23)cc1OC	-27%	-20%	-24%	/	0%	-13%	/	-2%
CS(=O)(=O)c1ccc(C(=O)NCc2ccccc2F)cc1	5%	-3%	-5%	/	2%	13%	/	/
Cc1ccc(-n2ncc(C(=O)NCc3ccco3)c2C2CCN(C(=O)OC(C)(C)C)CC2)cc1C	?	/	/	15%	/	-10%	-8.9%	/
CCOc1ccc(N2C(=O)CC(N3CCC(NC(=O)Nc4ccccc4)CC3)C2=O)cc1 (stereo not drawn)	2%	4%	22µM*	1%	0%	-12%	-4.2%	-52%
COC(=O)CCCN=C1SCCN1Cc1ccccc1	8%[46.1 µM]	-11%[46.1 µM]	-13%	/	2%	-3%	/	7%
Cc1ccc(OCC(=O)O/N=C(\N)Cc2ccc([N+](=O)[O-])cc2)cc1C	-7%	/	0%	/	-4%	-7%	/	-61%
CSC1=C(C#N)C(c2sccc2C)CC(=O)N1 (stereo not drawn)	-1%	-18%[46.1 µM]	2%	/	1%	22%	/	1%
CC(/C=C/C=C/c1ccccc1)=N/NC(=O)CNc1ccccc1C	5%	11%	2%	?	-16%	-9%	-4.2%	1%
Cn1cccc1Cc1nnc(SCC(=O)NCc2ccco2)n1CCc1ccccc1	6%	-11%	-7%	?	-1%	15%	2.1%	-6%
Cc1ccccc1NC(=O)Cn1c(=O)n(Cc2ccccc2)c(=O)c2sc3ccccc3c21	-6%[46.1 µM]	?	/	1%	/	-12%	-1.2%	/
CCOC(=O)c1cc(NC(=O)c2ccc(Cl)cc2)c(=O)n2c1oc1ccccc12	9%[46.1 µM]	0%[46.1 µM]	/	1%	/	3%	0.1%	/
CCN(Cc1nc(-c2ccc(Cl)cc2)no1)CC1CCCO1 (stereo not drawn)	-6%[46.1 µM]	2%[46.1 µM]	55%	/	1%	-3%	/	2%
COc1ccc(-c2oc3c(OC)c(OC)c(OC)c(O)c3c(=O)c2OC)cc1OC	/	/	-6%	/	14%	-7%	/	9%
COc1ccc(-n2nc(C(=O)NCC(=O)NCCCN3CC(C)CC(C)C3)c3ccccc3c2=O)cc1 (stereo not drawn)	-14%	-26%[46.1 µM]	9%	/	2%	-1%	/	4%
N/C(Cc1nc(-c2ccc(Br)cc2)cs1)=N\O	8%[46.1 µM]	?	-12%	/	-1%	-3%	/	/
CS(=O)(=O)N(CC(=O)Nc1ccc(Br)cc1)C1CCCCC1	-26%	-13%	-1%	/	?	55%[activator]	/	-18%
O=C(O)c1ccccc1C(=O)NCCCn1ccnc1	-2%	-3%	4%	/	4%	-14%	/	3%
CCOC(=O)c1cc(S(=O)(=O)NCc2cccc(Cl)c2)[nH]n1	-3%[46.1 µM]	/	/	-5%	/	32%[activator]	-2.3%	/

Going on with the list:
mol	LASV entry inh	Marburg entry inh	RE007 growth inh	Cruzain noTriton	SARS PLpro yeast	2A StopGo	Cruzain inh Det	NS1 function inh
CC1=C(C(=O)OCc2ccccc2)C(c2ccc(C#N)cc2)NC(=O)N1CCCC(=O)O (stereo not drawn)	0%	-12%	-6%	-1%	5%	-8%	-1.5%	-10%
CCOC(=O)c1cc2c(=O)n3cccc(C)c3nc2n(Cc2ccccc2Cl)c1=N	/	-1%	/	15%	15%	/	-8.3%	-7%
CCOc1ccc(S(=O)(=O)Nc2ccc(S(=O)(=O)Nc3cc(OC)ccc3OC)cc2)cc1	2%	-15%	11%	-3%	0%	26%	-7.0%	21%
O=C(C(c1ccccc1)c1ccccc1)N1CCOCC1	18%	-4%[46.1 µM]	14%	-3%	9%	-17%	1.2%	10%
O=C(c1ccccc1Cl)N1CCCCC1CCN1CCCCC1 (stereo not drawn)	6%[46.1 µM]	8%[46.1 µM]	/	-1%	/	-5%	7.4%	/
CC(NC(=O)/C(=C\c1cccc([N+](=O)[O-])c1)NC(=O)c1ccco1)C(=O)O (stereo not drawn)	-2%	-3%	17%	?	0%	/	5.0%	-36%
COc1cccc(-c2nc(CS(=O)CC(=O)NCCc3ccc(C)cc3)c(C)o2)c1 (stereo not drawn)	8%[46.1 µM]	-4%[46.1 µM]	2%	/	5%	-8%	/	6%
C=CCOn1c(=O)c(-c2ccc(Cl)cc2)[n+]([O-])c2ccccc21	/	/	-8%	/	0%	-8%	/	-1%
N#Cc1cccc(NC(=O)CSc2sc3c(O)cc(=O)[nH]c3c2C#N)c1	/	-8%[46.1 µM]	-19%	/	-9%	6%	/	?
